Screening results: PubChem BioAssay, National Center for Advancing Translational Sciences (NCATS)
NPR1 antag: human Npr1 receptor antagonism; P16066; HEK293 hNpr1 GloSensor cGMP, ANP-stimulated luminescence; Potency, µM (series often up to 46.3 µM), for inactives: at the top dose activity change, negative = inhibition, actives largely listed as inhibitors; hit rate 1.6% among 76,000; AID 1347048; active = well fitted inhibition curve with a large enough effect; inconclusive = small, poorly fitted or top-dose-only effect; inactive = no such curve, though single readings can be large or run the other way;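 also: nearly all actives have a fitted effect of over 60% in size; nearly all hits also lower the signal before the agonist is added; a reference antagonist and vehicle were the controls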
Target sequence (P16066 whole entry, looked up): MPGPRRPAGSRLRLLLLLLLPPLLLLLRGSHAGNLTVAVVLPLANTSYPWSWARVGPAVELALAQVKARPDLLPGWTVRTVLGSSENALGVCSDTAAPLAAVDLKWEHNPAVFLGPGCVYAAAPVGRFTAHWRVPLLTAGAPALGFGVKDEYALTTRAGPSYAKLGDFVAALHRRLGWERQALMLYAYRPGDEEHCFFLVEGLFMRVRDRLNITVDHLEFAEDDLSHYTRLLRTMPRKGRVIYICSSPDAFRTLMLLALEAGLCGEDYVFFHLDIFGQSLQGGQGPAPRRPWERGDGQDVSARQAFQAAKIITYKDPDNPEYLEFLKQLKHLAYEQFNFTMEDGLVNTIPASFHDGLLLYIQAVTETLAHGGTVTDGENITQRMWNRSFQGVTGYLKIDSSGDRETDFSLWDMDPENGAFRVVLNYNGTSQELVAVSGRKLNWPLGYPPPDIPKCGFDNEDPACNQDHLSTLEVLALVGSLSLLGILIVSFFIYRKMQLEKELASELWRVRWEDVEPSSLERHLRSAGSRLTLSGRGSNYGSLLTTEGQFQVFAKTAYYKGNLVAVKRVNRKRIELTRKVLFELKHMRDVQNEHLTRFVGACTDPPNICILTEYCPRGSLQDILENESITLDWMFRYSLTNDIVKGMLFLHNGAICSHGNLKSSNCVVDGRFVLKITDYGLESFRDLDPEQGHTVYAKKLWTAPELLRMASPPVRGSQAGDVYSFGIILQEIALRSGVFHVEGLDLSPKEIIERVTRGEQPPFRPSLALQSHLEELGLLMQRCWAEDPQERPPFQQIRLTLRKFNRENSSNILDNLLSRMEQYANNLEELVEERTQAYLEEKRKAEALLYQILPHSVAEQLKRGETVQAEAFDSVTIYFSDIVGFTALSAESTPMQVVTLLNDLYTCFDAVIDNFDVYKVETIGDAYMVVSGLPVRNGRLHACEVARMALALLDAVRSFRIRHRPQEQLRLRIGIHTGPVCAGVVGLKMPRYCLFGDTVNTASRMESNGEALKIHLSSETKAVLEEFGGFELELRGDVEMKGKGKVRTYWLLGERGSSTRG
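Compound pre-incubated 30 min at room temperature on GloSensor-loaded HEK293 cells stably carrying hNpr1 and the pGS-40F cGMP biosensor. Stimulation uses hNppA at 0.1 nM final; luminescence is taken at baseline and 20 min post-agonist.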
Active calls of the source: *; ? = inconclusive; [ ] = dose if it differs, or a comment. % is scaled to controls: 0 for no effect and ±100 for the full control effect; potency is read from the fitted curve at half-maximal effect.

| Structure | NPR1 antag |
| --- | --- |
| O=C(c1cccc(Cl)c1)N1CCC(Cc2nc(-c3cnccn3)no2)CC1 | -2% |
| COCCN1C(=O)c2cccn2CC1CNC(=O)c1n[nH]c2ccccc12 (stereo not drawn) | 1% |
| CN1CCN(C(=O)[C@@H]2CCC[C@@H](NC(=O)c3ccc4c(c3)OCO4)CN(C)C(=O)C2)CC1 | 2% |
| Cc1ccc(Nc2ncncc2-c2nc(-c3ccccc3)no2)c(Cl)c1 | -11% |
| CNc1nccc(N2CCC(CC(=O)NCCCN3CCc4ccccc4C3)CC2)n1 | 2% |
| CCOc1cc(=O)n2c(c1C(=O)Nc1cccc(Cl)c1C)CCCC2 | 0% |
| O=C(NC[C@H]1Cn2cc(-c3ccccc3)nc2CO1)c1ccccc1 | 0%[70.6 µM] |
| O=C(Cc1ccc(F)cc1)N1CCC2(CC1)CC(N(Cc1ccccc1)C1CC1)CCO2 (stereo not drawn) | ? |
| Cn1c(CNC(=O)C2CCCN(Cc3ccncc3)CCC(=O)NCC2)nc2ccccc21 (stereo not drawn) | 8% |
| Cc1ccc(NC(=O)Cn2ccn3nc(-c4ccccc4)c(CO)c3c2=O)c(C)c1 | -11% |
| COc1ccc(C2Cn3nnc(C(=O)N4CCC(C(=O)NCc5ccccc5F)CC4)c3CO2)cc1 (stereo not drawn) | -1% |
| Cc1cccc(NC(=O)N2CCC(Cc3nc(-c4ccccc4)n[nH]3)CC2)c1 | 1% |

The listing continues.
| Structure | NPR1 antag |
| --- | --- |
| CN(C)CCN(C)C(=O)c1ccc2c(c1)NC(C)(COc1ccc3[nH]ccc3c1)CO2 (stereo not drawn) | 4%[70.6 µM] |
| COCCOC(=O)C1=C(C)N=C2SC=C(CC(=O)NC3CC3)N2C1c1ccc(C)cc1C (stereo not drawn) | -27% |
| CCC(=O)N1CC(c2nnc(-c3ccc(C)cc3)o2)C2(CCOCC2)C1 (stereo not drawn) | 1% |
| Cc1cc(Cl)ccc1NC(=O)CCn1ccn2nc3c(c2c1=O)CCCC3 | 0% |
| CN(Cc1cccnc1)c1ccc(-c2nc(COc3ccccc3)no2)cn1 | 10µM* |
| O=C(Nc1ccc([C@@H](O)[C@H]2COCC(=O)N2Cc2ncc[nH]2)cc1)C1CC1 | -2%[70.6 µM] |
| COc1ccc([S+](=O)([O-])N2CCC(N3Cc4cccn4C3=O)CC2)cc1 | -24% |
| O=C(NC1CC1)[C@@H]1C[C@H](Oc2cccnc2)CN1C(=O)c1ccc2ccccc2n1 | 4% |
| COc1ccc(C(=O)N2CCN(C(=O)N3CC4CC(C3)[C@H]3CCCC(=O)N3C4)CC2)c(OC)n1 (stereo partly drawn) | 0% |
| CCn1c(C2CCCN(C(=O)c3cc(CC(C)C)nn3C)C2)nn(C)c1=O (stereo not drawn) | -8% |
| O=C1Cc2c(-c3cccc4ccccc34)n[nH]c2CN1Cc1ccccc1 | -2%[70.6 µM] |
| Cc1ccccc1OCc1nc(C2CN(C(=O)Cc3ccsc3)C2)no1 | -2% |

More compounds.
| Structure | NPR1 antag |
| --- | --- |
| CC(C)CN1CCN(C(=O)C2CCc3ncc(-c4ccc(F)cc4)n3C2)CC1 (stereo not drawn) | -15% |
| COc1cccc(NC(=O)Cn2nc3c(cc2=O)CN(C(C)=O)CC3)c1 | 5% |
| OCC1CN(Cc2cnc[nH]2)CCC12CCN(CCCn1cccn1)CC2 (stereo not drawn) | 6% |
| Cc1cc(OCCN(C)C)c(C)c2c1CC[C@@H]([C@H](C)C(=O)NCc1cccs1)C2 | 5%[70.6 µM] |
| O=C(Cc1ccc(OC(F)(F)F)cc1)N1CCC([C@@H]2CNC[C@H]2CO)CC1 | 1% |
| COc1ccc(Cl)cc1N1C(=O)[C@@H]2C[C@@H](NC(=O)Cc3cccs3)CCN2C1=O | 3%[70.6 µM] |
| Cc1cccc(OCc2c(C(=O)N3CCCC3c3nncn3CCN(C)C)noc2C)c1 (stereo not drawn) | -2% |
| O=C(CCc1ccccc1)N1CCC(n2cc(-c3nc(-c4ccccc4)no3)nn2)C1 (stereo not drawn) | 0% |
| CSc1ccccc1C(=O)N1CCN(C(C)=O)CC(O)C1 (stereo not drawn) | 0% |
| COc1cccc(CC2CN(Cc3ccc(F)cc3OC)CCO2)c1 (stereo not drawn) | -1% |
| COCCn1cnc2ccc(-c3cccc(O)c3)nc2c1=O | 2%[70.6 µM] |
| c1cncc(-c2cc(-c3cccc(N4CCOCC4)c3)cn3cncc23)c1 | -10%[70.6 µM] |

Additional structures:
| Structure | NPR1 antag |
| --- | --- |
| COc1cccc([C@H]2CN(C(=O)CCc3scnc3C)C[C@@H]2N)c1 | 0% |
| COc1ccc(CN2CCOC[C@H](Oc3cccc(C)n3)C2)cc1 | 4%[70.6 µM] |
| Cc1nc(CN(C)Cc2nc(-c3cccc(Cl)c3)oc2C)no1 | -8% |
| O=C(c1ncoc1C1CC1)N1CCOC(c2ccc(Cl)cc2)C1 (stereo not drawn) | -5% |
| COCC1(CNS(=O)(=O)c2ccc(F)cc2)C[C@@H](O)[C@@H](O)C1 (stereo partly drawn) | 3%[70.6 µM] |
| COc1cccc(NC(=O)Cc2c[nH]c3ncc(-c4ccccc4C)cc23)c1 | ? |
| O=C1CC(c2ccccc2)N(C(=O)C2CC2)CCCN(S(=O)(=O)Cc2ccccc2)CCN1 (stereo not drawn) | -1% |
| CC(C)N1CCN(C2CCOC3(CCN(C(=O)Nc4ccccc4)CC3)C2)CC1 (stereo not drawn) | -2% |
| CC1=C[C@@H](CN(CC2CC2)CC2CC2)[C@H](C(C)C)C[C@H]1Cc1nc2ccncc2[nH]1 | -4%[70.6 µM] |
| COc1cccc(CC(=O)N2C[C@@H](Oc3ccccc3)C[C@H]2C(=O)N2CCOCC2)c1 | 1% |
| COc1ccccc1-c1cc(-c2ccccc2)nc2c(C)noc12 | 3%[70.6 µM] |
| COCCNc1ncc(-c2ccc(N3CCOCC3)cc2)c2c1OCC2 | 0%[70.6 µM] |

Other records:
| Structure | NPR1 antag |
| --- | --- |
| COCc1nncn1C1CCN(S(=O)(=O)c2ccc(F)c(F)c2)CC1 | 8% |
| Cc1ccc([C@@H]2CN(C(=O)c3nc(C)oc3C)C[C@H]2NC(=O)C2CC2)cc1 | 6% |
| CCOc1ccc(CC(=O)NC2CCN(c3cc(-c4ccc(F)cc4)[nH]n3)C2)cc1OCC (stereo not drawn) | -20% |
| OC(c1ccccc1)c1nc(Nc2ccc(C(F)(F)F)cc2)n[nH]1 (stereo not drawn) | -16%[70.6 µM] |
| CCOC(=O)Cc1csc(NC(=O)C[C@H]2NC(=O)c3ccccc3NC2=O)n1 | 0% |
| CN1C[C@H](NC(=O)c2nc3ccccc3s2)CCC[C@@H](C(=O)N(C)Cc2cccnc2)CC1=O | -25% |
| Cc1ccc(C(=O)N[C@@H]2CN(c3ncccn3)C[C@H]2CO)nc1 | 1% |
| COc1cccc(CNC(=O)Cn2c(-c3ccc(F)cc3)nc(C)c(CCO)c2=O)c1 | 2% |
| COc1ccc(-c2cc3c(=O)n(CCNC(=O)c4sccc4C)ccn3n2)cc1 | -13% |
| CCC1Oc2ccc(NC(=O)C(C)C)cc2CN(Cc2ccccc2F)C1=O (stereo not drawn) | -14% |
| Cc1ccccc1CN1Cc2nc(Nc3ccccc3)ccc2OCC1=O | -21%[70.6 µM] |
| COCC1CCN(C(=O)COc2ccc(NC(=O)C3CC3)cn2)CC1 | 7% |

Next records
| Structure | NPR1 antag |
| --- | --- |
| COc1ccc(N2CCN(C(=O)CC3CCCCN(C)C3=O)CC2)cc1 (stereo not drawn) | -2% |
| O=C(CCCc1ccccc1)N1CCC(Cc2nc(-c3ccncc3)n[nH]2)CC1 | ? |
| Cc1cn2nc(C(=O)NCc3ccc4c(c3)OCO4)cc2c(N2CCCC2)n1 | 15% |
| Cc1noc([C@@H]2CN(Cc3ccc(OC(F)(F)F)cc3)C[C@H]2CO)n1 | -29% |
| Cc1cc(-c2cccc(CCOc3cnc4c(ccn4CC(=O)O)c3)c2)ccn1 | ? |
| O=C(NCc1ccncc1)c1csc(N2CCN(c3ccccc3F)CC2)n1 | ? |
| COc1ccccc1-c1nc2cnccn2c1NCCC(=O)Nc1ccc(C)cc1C | 2% |
| Cc1noc(C)c1Cn1ccn2nc3c(c2c1=O)CCCC3 | -3% |
| O=C(c1ccccc1)N1CCn2c(nnc2C2CCCNC2)C1 (stereo not drawn) | 13%[70.6 µM] |
| NC(=O)c1ccc(NC(=O)Cn2nc3c(cc2=O)CCCC3)cc1 | 1% |
| CN1C[C@@H](NC(=O)CC(C)(C)CC(=O)O)C[C@H]1c1nc(-c2ccccc2)no1 | 8%[70.6 µM] |
| COc1ccccc1N1CCN(C(=O)Cn2c(N3CCc4ccccc4C3)nc(C)cc2=O)CC1 | ? |

Next part:
| Structure | NPR1 antag |
| --- | --- |
| CC(=O)N1CCC(N2CC[C@H](c3nc4ccc(C#N)cc4[nH]3)C2)CC1 | 7%[70.6 µM] |
| O=C(NC1CC1)c1ccccc1OC1CN(C2CCC2)C1 | -9% |
| O=C(CC1=C2CCCCC2N(Cc2ccccc2)C1=O)NCCc1c[nH]c2ccccc12 (stereo not drawn) | -19% |
| COCCc1noc(-c2nc(-c3ccccc3)no2)n1 | -5% |
| CN(CC1CCOCC1)C(=O)NCc1ccccc1 | 4% |
| CNC(=O)[C@@H]1CN(C(=O)CCc2c(C)noc2C)C[C@H]1c1n[nH]c(C)n1 | 4% |
| CC(C)C(=O)N1CCOC[C@H](Oc2ccc(C(F)(F)F)cc2)C1 | 3%[70.6 µM] |
| Cc1ccc(OC2(C(=O)NCc3cccc(N(C)C)c3)CCNCC2)cc1 | -2% |
| CC1(c2ccccc2)N(Cc2ccccc2)C(=O)OC12CCN(Cc1cccnc1N)CC2 (stereo not drawn) | -6% |
| NC1CC(c2cc(NCCc3cn4ccsc4n3)ncn2)C1 (stereo not drawn) | 10% |
| O=C1Cc2c(-c3ccoc3)n[nH]c2CN1Cc1ccccc1 | -4%[70.6 µM] |
| CCOC(=O)C[C@@H]1C[C@@H](C(C)C)[C@H](CNC(=O)C2CC2)C=C1C | -3%[70.6 µM] |

The list continues:
| Structure | NPR1 antag |
| --- | --- |
| Cc1ccc(OCc2nc(C3CCN(C(=O)c4c5c(nc6ccccc46)CCCC5)CC3)no2)cc1 | -19% |
| CN1c2cc(C(=O)Nc3cccc(C#N)c3)ccc2C(=O)N2CCCCC21 (stereo not drawn) | 10% |
| C[C@H]1CCCN1C(=O)c1nnc(CNCc2ccc3c(c2)OCO3)n1-c1cccnc1 | 1%[70.6 µM] |
| CC1=C(C(=O)OC(C)C)C(c2ccccc2F)N2C(CC(=O)N3CCOCC3)=CSC2=N1 (stereo not drawn) | -26% |
| C=C(C)CN(C)C(=O)c1coc(COc2ccc3c(c2)OCO3)n1 | -1% |
| Cc1cnc(C(=O)N2CCC3(CC2)CC(N2CCN(c4ccccn4)CC2)CCO3)cn1 (stereo not drawn) | -2% |
| O=C(CCc1nnn2c1CN(C(=O)NC1CCCC1)CC2)N1CCCC1 | 5% |
| CCN(CC)C1CCOC2(CCN(C(=O)c3cccnc3C)CC2)C1 (stereo not drawn) | 14% |
| CCCCN(C)C(=O)c1cccc2c1CCN2C(=O)Nc1ccc(OC)cc1 | -8% |
| CCCS(=O)(=O)N1CCC(Cc2ncc(C)n2Cc2ccc(F)cc2)CC1 | 0% |
| Cc1ccc(C(=O)N2CCCC3(CCNCC3)CC2)c2ccccc12 | 11% |
| COCCn1nc2n(c1=O)CCN(Cc1sccc1C)CC2 | 4% |

Reformatted with each value named: entries from further up
> Cc1ccc(C(=O)N2CCCC3(CCNCC3)CC2)c2ccccc12
- NPR1 antag: 11%
> CC1=C(C(=O)OC(C)C)C(c2ccccc2F)N2C(CC(=O)N3CCOCC3)=CSC2=N1 (stereo not drawn)
- NPR1 antag: -26%
> Cc1cnc(C(=O)N2CCC3(CC2)CC(N2CCN(c4ccccn4)CC2)CCO3)cn1 (stereo not drawn)
- NPR1 antag: -2%
> C=C(C)CN(C)C(=O)c1coc(COc2ccc3c(c2)OCO3)n1
- NPR1 antag: -1%

Going on with the list.
| Structure | NPR1 antag |
| --- | --- |
| Nc1nc(C2CC(N)C2)cc(N2CC(c3nc4ccccc4[nH]3)C2)n1 (stereo not drawn) | 5% |
| Cc1ccc(NC(=O)N2CCc3c(c4cc(F)ccc4n3C)C2)cc1 | -15% |
| CCN1c2cc(C(=O)Nc3ccccc3C(=O)OC)ccc2C(=O)N2CCCCCC21 (stereo not drawn) | -2% |
| Cc1cc(C)n(CC(=O)NCC(=O)N2CCCCCCNC(=O)CC2c2ccccc2)n1 (stereo not drawn) | -3% |
| CCn1ncc(N2CCC(NC(=O)c3ccc(C)cc3C)CC2)cc1=O | 0% |
| CN(Cc1ccccc1)C(=O)CN1C(=O)COc2ccc(C(=O)COc3cccc(F)c3)cc21 | 1% |
| Cc1cc(F)ccc1-c1[nH]nc2ncc(-c3ccccc3)nc12 | -14%[70.6 µM] |
| O=C(C1CN(c2ccc(F)cc2)C(=O)N1)N1CCN(Cc2ccccc2)CC1 (stereo not drawn) | 22% |
| CC(C)(C)C(=O)NC1CCN(c2cn[nH]c(=O)c2)CC1 | -13% |
| COCCn1ncc(N2CCC(C(=O)NCC3CCCCC3)C2)cc1=O (stereo not drawn) | 2% |
| COc1ccc(C(=O)N2CCOCCNC(=O)[C@H]3CCCC[C@H]32)c(OC)n1 | 0% |
| COCCN1C(=O)c2ccccc2C(C(=O)NCc2ccccc2F)C12CCCCC2 (stereo not drawn) | -3% |

Continuation.
| Structure | NPR1 antag |
| --- | --- |
| CCOc1nccnc1NC1CCN(C(=O)c2ccc(C)s2)CC1 | -6% |
| O=C1CCN(C(=O)C2CCN(S(=O)(=O)Cc3ccccc3)CC2)CCCCCCN1 | -2% |
| CCOc1ccccc1CN1CCC2(CCN(CCc3ccc(OC)cc3)CC2)Oc2ccccc21 | 3% |
| CC(C)NS(=O)(=O)c1ccc2c(c1)nc(-c1ccc(CO)o1)n2C(C)C | 5% |

Some of the compounds tested; rates above refer to the full screens.
